GSTO1 inh: blocks human GSTO1 in RBBP9 counter-screen; 1.1% of 300,000 active; inhibition, % at 5.96 µM; recombinant GSTO1, activity-based probe fluorescence polarization; P78417;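 active = inhibition above the campaign mean inhibition plus 3 SD, cut at about 35% in these data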;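 also: 0% = GSTO1-1 with DMSO and 100% = wells lacking GSTO1-1 enzyme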
LYPLA2 inh: counter-screen for PME1 inhibitors: inhibitors of human LYPLA2; O95372; recombinant LYPLA2, FP-Rh probe fluorescence polarization; inhibition, % at 5.9 µM; 0.38% of 320,000 active;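 active = inhibition above the screen-wide mean plus 3 SD, limit set per campaign, cut at about 26% in these data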;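 also: 0% = LYPLA2 with DMSO and 100% = wells lacking LYPLA2 enzyme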
Target sequence (O95372 whole entry, looked up): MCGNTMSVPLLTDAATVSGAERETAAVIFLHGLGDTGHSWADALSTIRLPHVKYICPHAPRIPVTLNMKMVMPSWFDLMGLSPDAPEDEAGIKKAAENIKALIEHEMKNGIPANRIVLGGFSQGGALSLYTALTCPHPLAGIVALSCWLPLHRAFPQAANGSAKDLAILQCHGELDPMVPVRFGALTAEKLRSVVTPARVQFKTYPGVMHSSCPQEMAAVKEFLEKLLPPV
PAFAH1B3 inh: blocks human PAF acetylhydrolase 1B catalytic subunit 3. Q15102. recombinant PAFAH1B3, FP-rhodamine probe, fluorescence polarization. inhibition, % at 3.39 µM. 0.28% of 340,000 active. AID 492972;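 active = inhibition above the screen-wide average of all tested compounds plus 3 SD, cut at about 25% in these data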;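 also: 0% = enzyme with DMSO only and 100% = wells lacking PAFAH1B3 protein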
PREPL inhibitor: inhibits the human prolyl oligopeptidase-like enzyme; Q4J6C6; recombinant PREPL, fluorescence polarization activity-based probe; inhibition, % at 5.96 µM; 0.68% of 320,000 active; AID 2751; in the data active = inhibition above about 43%;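 also: 0% = enzyme with DMSO and 100% = wells lacking enzyme; many of its hits are not listed in these tables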
Target sequence (Q4J6C6 whole entry, looked up): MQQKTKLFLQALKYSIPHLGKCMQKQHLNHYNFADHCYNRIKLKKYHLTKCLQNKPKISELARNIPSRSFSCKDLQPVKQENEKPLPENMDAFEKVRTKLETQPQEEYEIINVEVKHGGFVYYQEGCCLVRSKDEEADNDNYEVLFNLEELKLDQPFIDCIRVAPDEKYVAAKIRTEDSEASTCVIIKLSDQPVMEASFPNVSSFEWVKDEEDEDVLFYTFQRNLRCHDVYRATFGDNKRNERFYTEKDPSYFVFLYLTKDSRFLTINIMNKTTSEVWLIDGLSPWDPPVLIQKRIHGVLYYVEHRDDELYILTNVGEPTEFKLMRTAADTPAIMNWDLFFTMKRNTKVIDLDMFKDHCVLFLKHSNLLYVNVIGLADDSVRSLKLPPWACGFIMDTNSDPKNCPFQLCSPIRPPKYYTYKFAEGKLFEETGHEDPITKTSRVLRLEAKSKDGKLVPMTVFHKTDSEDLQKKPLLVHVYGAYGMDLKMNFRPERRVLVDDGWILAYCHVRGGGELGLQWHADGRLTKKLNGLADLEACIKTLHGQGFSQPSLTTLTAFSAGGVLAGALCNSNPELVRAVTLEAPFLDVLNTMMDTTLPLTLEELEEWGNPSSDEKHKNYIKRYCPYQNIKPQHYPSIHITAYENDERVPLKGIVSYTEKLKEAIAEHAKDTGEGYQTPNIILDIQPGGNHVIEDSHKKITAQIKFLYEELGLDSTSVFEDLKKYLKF
PAFAH1B2 inh: inhibitors of human PAFAH1B2; inhibition, % at 3.39 µM; recombinant PAFAH1B2, FP-rhodamine activity probe, fluorescence polarization; P68402; 1.2% of 340,000 active;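 active = inhibition above the mean of all tested compounds plus 3 SD, cut at about 24% in these data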;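 also: 0% = enzyme with DMSO and 100% = wells lacking PAFAH1B2; many of its hits are not listed in these tables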
PAD4 inh: PAD4 (human) enzyme inhibition; Q9UM07; recombinant PAD4, RCA probe fluorescence polarization; inhibition, % at 6.36 µM; 0.41% of 330,000 active;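 active = percent inhibition above a cutoff equal to the mean of all tested compounds plus 3 SD, cut at about 15% in these data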;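 also: 0% = PAD4 with RCA probe and DMSO and 100% = probe without PAD4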
pPAFAH inh: pPAFAH (human) enzyme inhibition | Q13093 | recombinant pPAFAH, FP-rhodamine probe fluorescence polarization | inhibition, % at 3.39 µM | 1.5% of 330,000 active;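 active = inhibition above the mean inhibition across the screen plus 3 SD, cut at about 25% in these data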;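 also: inhibitors block binding of the rhodamine activity-based probe so polarization drops; 0% = enzyme with DMSO and 100% = wells lacking pPAFAH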
LYPLA1 inh: LYPLA1 (human) inhibition in PME1 counter-screen | O75608 | recombinant LYPLA1, FP-Rh probe fluorescence polarization | inhibition, % at 5.9 µM | 0.16% of 320,000 active;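 active = inhibition above the mean of all tested compounds plus 3 SD, set per campaign, cut at about 14% in these data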;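 also: inhibitors block serine hydrolase probe labeling of LYPLA1 so polarization falls; 0% = enzyme with DMSO and 100% = wells lacking LYPLA1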
An asterisk follows results filed as active; . = not tested or not shown.

SMILES | GSTO1 inh | LYPLA2 inh | PAFAH1B3 inh | PREPL inhibitor | PAFAH1B2 inh | PAD4 inh | pPAFAH inh | LYPLA1 inh
CN(CCO)c1cc(NCCCN2CCC(Cc3ccccc3)CC2)c2nonc2c1[N+](=O)[O-] | 0 | 18 | 3 | 38 | 2 | -1 | 1 | 14
COc1ccccc1CNC(=O)C1CCCN(S(=O)(=O)c2ccc3c(c2)CC(C)N3C(C)=O)C1 (stereo not given) | 2 | 10 | 7 | 3 | 5 | 0 | 1 | 0
COc1cccc(NC(=O)COc2ccc(Br)c(C)c2)c1 | -7 | -2 | 11 | 1 | 4 | -1 | 2 | -7
COc1cc(S(=O)(=O)N2CCOCC2)ccc1NC(=O)CN1c2cccc3cccc(c23)S1(=O)=O | 6 | -3 | 3 | -9 | 0 | -4 | 10 | -9
CCN(CC)c1ccc(S(=O)(=O)N2CCOCC2)cc1NC(=O)CNCc1ccccc1 | -9 | -1 | 6 | 31 | 1 | 0 | 4 | -2
Cc1ccc(NC(=S)N/N=C/c2c(Cl)cccc2Cl)c(C)c1 | -2 | -21 | -1 | 3 | 1 | -3 | -5 | -15
O=[N+]([O-])c1ccc(S(=O)(=O)Nc2cccc(-c3ccc(N4CCOCC4)nn3)c2)cc1 | 0 | -2 | -5 | -13 | 2 | 2 | 1 | 5
COc1ccc(C2CC(=O)NC3=C2C(=O)CCC3)cc1Cl (stereo not given) | 1 | 6 | 5 | -1 | -3 | -5 | 2 | -1
CCCC1Cc2c(sc(NC(=S)NC(=O)c3ccccc3)c2C#N)CO1 (stereo not given) | 0 | -1 | . | 2 | . | 5 | 2 | -2
COC(=O)C1=C(N)N(c2ccc(F)cc2)C2=C(C(=O)CCC2)C1c1ccc2c(c1)OCO2 (stereo not given) | -1 | 3 | -1 | -4 | -1 | 0 | 5 | 2
O=C(NCc1ccccc1F)C1CCN(S(=O)(=O)c2ccccc2)CC1 | 8 | 7 | -4 | 13 | -1 | -4 | 0 | 0
O=C(c1ccccc1)N1CCCC(c2nc3c(nnn3Cc3ccccc3)c(=O)[nH]2)C1 (stereo not given) | 2 | -2 | -8 | 6 | -1 | -1 | 3 | 1
COc1ccc2nc(Nc3nc4ccc(NC(C)=O)cc4s3)sc2c1 | 8 | -2 | 5 | 11 | 14 | 0 | 15 | -3
CC(C)NC(=O)CNc1ccc(C(F)(F)F)cc1[N+](=O)[O-] | 10 | 1 | 1 | 7 | -2 | 4 | 2 | -1
Clc1nn2cnnc2c2ccccc12 | -6 | 6 | 4 | 4 | 3 | -4 | 3 | 3
CC(=O)Nc1ccc(S(=O)(=O)N2CCN(C(=O)C3COc4ccccc4O3)CC2)cc1 (stereo not given) | -1 | 5 | 13 | -5 | 0 | -2 | 0 | 2
COc1ccc(-c2cc3ccccc3oc2=O)cc1NC(=O)c1cccnc1 | -5 | 4 | 7 | 15 | -2 | -3 | 4 | 4
COc1cc2c(cc1OC)C(c1ccccc1)N(C(=O)c1ccccc1)CC2 (stereo not given) | 2 | 4 | -1 | -1 | 5 | -1 | 7 | 2
Cc1ccc(C)c(Nc2nc3ccc(C)cc3n3cnnc23)c1 | 1 | 2 | 8 | 16 | 2 | 3 | 5 | -4
CCC(=O)N1CCc2cc(S(=O)(=O)NC(C(=O)N3CCc4ccccc4C3)C(C)C)ccc21 (stereo not given) | 2 | -5 | 4 | 6 | 5 | -7 | 1 | -2
Cc1ccc(CNC(=O)Cn2cnc(S(=O)(=O)N3CCC(C)CC3)c2)o1 | -2 | 6 | 6 | -1 | 1 | -6 | 5 | -2
COc1ccccc1NC(=O)C1=C(C)Nc2nnnn2C1c1cccc(C)c1 (stereo not given) | 0 | -1 | 4 | -10 | 4 | 0 | -2 | -1
Cc1nc(NS(=O)(=O)c2ccc(Cl)s2)c2c3c(sc2n1)CCCC3 | -25 | -9 | -3 | 8 | 3 | 0 | 9 | -8
O=C(Cn1nc(-c2ccccc2)nc1-c1ccccc1)OC1CCCCC1 | -2 | 2 | 1 | 13 | -2 | -5 | 1 | 1
COc1ccc(-c2nc(NC(C)=O)sc2-c2ccc(OC)cc2)cc1 | 10 | -4 | 7 | 14 | -1 | -8 | 3 | -1
Cc1ccc(-n2c(=O)[nH]c3c(C(N)=O)nc(-c4ccc(C)o4)nc32)cc1 | 4 | 0 | 13 | 2 | 1 | -3 | 1 | -1
O=C(Nc1ccc2oc(=O)ccc2c1)c1ccc(-c2ccccc2[N+](=O)[O-])o1 | 4 | 4 | -2 | 3 | 0 | -6 | 1 | -2
COc1cc(OC)cc(C(=O)N[C@H](C(=O)OCC(=O)c2ccc3c(c2)NC(=O)CO3)C(C)C)c1 | -2 | -3 | -5 | -2 | -1 | 4 | 3 | -8
Cc1ccc(C(=O)NCCCn2ccnc2)o1 | -2 | 4 | 4 | 1 | 1 | -1 | 3 | 0
Cc1ccc(C)c(CN2C(=O)CSc3ccc(C(=O)NCCN4CCOCC4)cc32)c1 | -4 | -4 | 12 | 15 | -1 | 2 | 3 | -1
CCOC(=O)c1nc(C)sc1-c1ccnn1S(=O)(=O)c1ccccc1C(F)(F)F | -2 | 1 | . | -9 | . | 6 | 8 | -3
CC1(C)CC(=O)C2=C(C1)N(c1ccccc1C#N)C(N)=C(C#N)C2c1cccs1 (stereo not given) | 0 | 6 | 0 | 15 | 2 | 0 | 8 | 3
O=c1[nH]c(-c2ccccn2)cc2ccccc12 | 1 | 6 | 14 | 1 | 0 | 6 | 1 | 0
Cn1c(C2CC(=O)N(Cc3ccccc3)C2)nc2ccccc21 (stereo not given) | 3 | -4 | -5 | -4 | 4 | -1 | 2 | -1
O=C(NCCCN1CCOCC1)c1ccc(CNS(=O)(=O)c2ccc(Br)cc2)cc1 | 8 | 1 | 0 | -7 | -1 | 0 | 6 | 0
Cc1ccc(S(=O)(=O)N2CCC(c3nc4c(nnn4Cc4ccccc4)c(=O)[nH]3)CC2)cc1 | -8 | -3 | . | 5 | . | -7 | -7 | -4
COc1ccccc1-n1c(=O)[nH]c2c(C(N)=O)nc(C3CCCCC3)nc21 | 0 | -4 | -7 | 8 | 7 | 4 | 0 | 0
COc1ccc(S(=O)(=O)N2CCOCC2)cc1NC(=O)CSc1nnc2c(n1)[nH]c1ccccc12 | 3 | -17 | 7 | 8 | 2 | -1 | -5 | -7
COc1cc(-c2cc(=O)c3c(O)cc(O)cc3o2)ccc1O | 4 | -2 | . | 2 | . | 3 | 11 | -1
CCC(C)c1ccccc1N1CC(C(=O)N2CCN(S(=O)(=O)c3ccccc3Br)CC2)CC1=O (stereo not given) | 0 | 3 | 11 | 11 | 2 | -2 | 5 | 2
O=C(CCNC(=O)C1CCN(S(=O)(=O)c2ccccc2)CC1)NCc1ccc(Cl)c(Cl)c1 | 9 | 6 | -2 | 9 | 22 | -1 | 3 | -1
COc1cccc2sc(Nc3nc4ccc(NC(C)=O)cc4s3)nc12 | -5 | -6 | 10 | 7 | 8 | 1 | 17 | -2
C[C@@H](NC(=O)c1nc[nH]c1C(=O)NC1CCN(C(=O)OC(C)(C)C)CC1)c1ccccc1 | . | -3 | 2 | 6 | 3 | -2 | 5 | -2
COCCOC(=O)/C(C#N)=C/c1cn(Cc2ccccc2)nc1-c1cccnc1 | 9 | 3 | 4 | 1 | 2 | -5 | 3 | 1
COc1cccc(NC(=O)COC(=O)Cc2ccc(Cl)cc2)c1 | -1 | -3 | 0 | 8 | 2 | -7 | 14 | 3
Cc1ccccc1-c1nc(-c2ccc(NC(=O)c3ccc(Br)o3)cc2)no1 | -2 | -20 | -23 | 0 | -12 | 0 | -5 | -10
Cn1nc(-c2ccccc2)cc1NC(=O)c1cccs1 | 9 | 3 | 3 | -4 | 3 | -6 | 2 | -1
COc1cc2c(cc1OC)CN(C(=O)c1cc(S(=O)(=O)N3CCCCC3)ccc1Cl)CC2 | -2 | 7 | 8 | 19 | -4 | 0 | 1 | 1
O=S(=O)(Cc1c(F)cccc1Cl)c1ncn[nH]1 | 5 | -7 | 2 | -1 | 1 | 0 | 2 | -5
Cc1ccc([N+](=O)[O-])cc1S(=O)(=O)Nc1cccc(-c2ccc(N3CCCC3)nn2)c1 | 6 | 5 | 6 | 11 | -1 | -7 | 22 | 0

(more compounds)
SMILES | GSTO1 inh | LYPLA2 inh | PAFAH1B3 inh | PREPL inhibitor | PAFAH1B2 inh | PAD4 inh | pPAFAH inh | LYPLA1 inh
COc1cc2c(cc1OC)C(c1ccccc1)N(C(=O)c1ccco1)CC2 (stereo not given) | 7 | -5 | 5 | 3 | 5 | -3 | 3 | 1
Brc1ccccc1-c1nnc(SCc2nc3ccccc3s2)o1 | 9 | 2 | -2 | -4 | -2 | 0 | 4 | -1
CCN1CCCC1CNC(=O)c1cc(S(=O)(=O)N(C)C)ccc1Cl (stereo not given) | 7 | -5 | 5 | 1 | 1 | 2 | 5 | 0
CC(=O)c1ccc(N2CCN(C(C)C(=O)NC3CCCc4ccccc43)CC2)cc1 (stereo not given) | -2 | 5 | 2 | 2 | 4 | 2 | 5 | 1
CCCCn1c(-c2cc(Cl)ccc2OC)n[nH]c1=S | -4 | -9 | -3 | 7 | 2 | 4 | -11 | -6
CC(=O)c1c(C)[nH]c(C(=O)OCC(=O)Nc2cc(S(=O)(=O)N3CCCCC3)ccc2C)c1C | -6 | 0 | -2 | 1 | 3 | -5 | 5 | -5
Cc1c(C(=N)C(C#N)C#N)c(=N)oc2c1ccc1ccccc12 | 8 | -4 | 5 | 6 | 4 | -7 | 13 | -5
Cc1cc(C)n(-c2ccc3nnc(C)n3n2)n1 | 0 | -1 | 6 | 1 | -1 | 1 | 0 | 0
CCOc1ccc(S(=O)(=O)Nc2cccc(C(=O)NCCCN3CCOCC3)c2)cc1 | . | -2 | -3 | 1 | 2 | -3 | 4 | -4
CCOc1ccc(S(=O)(=O)N2CCN(Cc3ccc4c(c3)OCO4)CC2)cc1Cl | 0 | -3 | -2 | 3 | 7 | -3 | 1 | -2
COc1cccc(OCC(=O)Nc2ccccc2C(N)=O)c1 | 4 | 4 | 14 | 0 | 4 | 6 | -4 | 0
O=c1c(NCCc2ccccc2)c(-c2ccccc2)c1=O | -8 | -6 | 4 | 6 | 0 | -1 | -3 | 0
O=C(NCCCN1CCOCC1)c1ccc(S(=O)(=O)Nc2cccc(C(F)(F)F)c2)cc1 | 17 | -5 | 5 | 9 | 0 | -3 | 4 | -2
COc1ccc(NC(=O)Nc2ccc3nsnc3c2)cc1 | 0 | 4 | 7 | 14 | 0 | -3 | 2 | -8
O=C(c1cc(-c2ccc(Br)cc2)n[nH]1)N1CCN(C(=O)c2ccccc2Br)CC1 | 1 | 20 | 4 | 23 | -7 | 4 | 5 | 4
O=S(=O)(Nc1cccc(-c2ccc(N3CCCCCC3)nn2)c1)c1ccc(F)cc1 | -8 | -19 | 9 | -13 | 17 | 3 | 20 | -12
CC(C)(C)c1ccc(C(=O)NC(=S)Nc2sc3c(c2C#N)CCC3)cc1 | 3 | -2 | 3 | 21 | 5 | 2 | 4 | -2
CC(=O)NS(=O)(=O)c1cccnc1Nc1cccc(Cl)c1C | 1 | 6 | 2 | 1 | 3 | 2 | 4 | -1
CCOc1ncccc1C(=O)OCC(=O)Nc1cc(S(=O)(=O)N(CC)CC)ccc1C | 3 | -1 | 4 | -1 | -1 | 0 | 19 | 2
CCOc1ccc2nc(NC(=O)Nc3cccs3)sc2c1 | -5 | 3 | 11 | 22 | 7 | 1 | 15 | -11
Cc1cc(C)cc(N2CC34C=CC(O3)C(C(=O)OCC(=O)NCc3ccco3)C4C2=O)c1 (stereo not given) | 7 | 1 | 2 | 15 | 3 | -1 | 6 | 8
O=C(COC(=O)c1cccnc1Cl)Nc1cc(S(=O)(=O)N2CCOCC2)ccc1Cl | . | 7 | 2 | 2 | 2 | -6 | 2 | 5

Screens (PubChem)

These rows are one share of the data; rates above refer to the full screens.
